CaV13 ICDI inh = Disruptors of the CACNA1D IQ motif to Ca2+-dependent inactivation inhibitor domain association, primary screening, Förster resonance energy transfer in intact living … | HEK cells, CFP/YFP FRET ICDI-IQ, plate reader, 10 min; percent FRET-ratio fall versus neutral wells | inhibition, % at 12.3 µM | actives 0.098% (n = 340,000) | AID 743397;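 active = mean replicate inhibition of at least 30% and at least 1% of replicates passing that level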;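 also: 0% = median of the neutral control wells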
PDI turbidity = inhibitors of human PDI, primary screen, biochemical, turbidity, single point, plate reader | actives 0.052% (n = 350,000) | inhibition, % at 10 µM | PDI insulin aggregation turbidity, A650, 90 min | Protein disulfide-isomerase (Homo sapiens), P07237 | AID 588391, 2011;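 active = mean inhibition across replicates of 30% or more, whatever share of single replicates reach that level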;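 also: absorbance from insulin aggregation driven by PDI reduction with DTT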
Cardio protect = cardioprotection against H2O2-induced cell death, primary screen, uHTS, H9c2 cells, ATPLite luminescence; protection from H2O2 cell death, % at 20 µM; H9c2 cardiomyocytes, H2O2 injury protection, 2 h; actives 0.63% (n = 360,000);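 active = compounds giving at least 50% protection of heart cells from peroxide-induced death in the single-dose screen, raw or plate-pattern-corrected value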;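 also: 0% = DMSO wells with peroxide and 100% = DMSO wells without peroxide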
NR2E3 ag-1 = inhibitors of NR2E3-RetCOR corepressor binding, primary screen, NR2E3 agonist project, biochemical, TR-FRET, GST-NR2E3, biotin-RetCOR. inhibition of corepressor binding, % at 4.78 µM. actives 0.12% (n = 320,000). Photoreceptor-specific nuclear receptor (Homo sapiens), Q9Y5X4. 1536-well. AID 2300, 2010;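 active = percent inhibition above the cutoff of mean plus 3 SD of all tested compounds, set per screening campaign, cut at about 20% in these data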;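 also: 0% = DMSO wells and 100% = biotin wells as full block of FRET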
Target sequence (Q9Y5X4 whole entry, looked up): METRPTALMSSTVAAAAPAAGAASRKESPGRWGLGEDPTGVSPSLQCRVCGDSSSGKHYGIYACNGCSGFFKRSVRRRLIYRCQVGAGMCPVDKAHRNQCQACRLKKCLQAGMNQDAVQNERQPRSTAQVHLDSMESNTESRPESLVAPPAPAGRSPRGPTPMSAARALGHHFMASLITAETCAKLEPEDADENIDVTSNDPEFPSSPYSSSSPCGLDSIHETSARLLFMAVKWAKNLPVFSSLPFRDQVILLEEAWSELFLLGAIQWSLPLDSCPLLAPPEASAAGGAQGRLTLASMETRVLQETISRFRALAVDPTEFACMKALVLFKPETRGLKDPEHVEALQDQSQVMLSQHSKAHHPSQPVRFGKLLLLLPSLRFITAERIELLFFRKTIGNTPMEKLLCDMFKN
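Material – GST-tagged NR2E3 plus biotinylated RetCOR corepressor · Quantity – NR2E3 fusion 1.35 nM · Times – 5 h incubation at 4 °C · Medium – pH 7.5 Tris-based buffer · Technique – TR-FRET, Eu(K)-anti-GST donor, streptavidin-D2 acceptor, ex 340, em 617/671 nm · Benchmarks – high control biotin, low control 0.6% DMSO · Format – 1536-well plates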
Shn3 inh set2 = reduction of Shn3 3'UTR firefly luciferase signal, primary screen, Schnurri-3 inhibitor project, cell-based, Clone20 osteoblasts, set 2 | Clone20 osteoblast Shn3 3'UTR firefly luciferase, 24 h | inhibition, % at 12.5 µM | actives 0.52% (n = 360,000) | AID 588674, 2011;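 active = mean inhibition of at least 75% with every replicate also reaching 75%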;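 also: 0% = median of neutral control wells and 100% = pilot-screen positive control compound; some compounds past the cut are filed as inactive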
NR2E3 ag-2 = NR2E3 agonists in two-hybrid cells, primary screen, cell-based, luminescence, CHO-S, Gal4-NCOR/VP16-NR2E3; Photoreceptor-specific nuclear receptor (Homo sapiens), Q9Y5X4; luciferase; inhibition of corepressor binding, % at 3.98 µM; actives 0.35% (n = 360,000); AID 602229, 2012;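 active = inhibition above the mean of all tested compounds plus 3 SD, cut at about 70% in these data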;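 also: 0% = DMSO with NR2E3 transfected cells and 100% = cells lacking NR2E3 construct; higher means lower luciferase signal from less NR2E3 corepressor binding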
* marks the source's active call; other numbers are inactive results; · = no result given; & = joins results of further samples.

| SMILES | CaV13 ICDI inh | Shn3 inh set2 | NR2E3 ag-1 | PDI turbidity | Cardio protect | NR2E3 ag-2 |
| --- | --- | --- | --- | --- | --- | --- |
| Clc1ccc(C[n+]2c(-c3ccccc3)cc(-c3ccccc3)cc2-c2ccccc2)cc1 | -4 | 77 | -2 | -59 | -23 | 22 |
| CCC(CO)NC(=O)C1C=C2c3cccc4[nH]cc(c34)CC2N(C)C1 (stereo not given) | -5 | -15 | 5 | -2 | 9 | -16 |
| Clc1ccc(COC(Cn2ccnc2)c2ccc(Cl)cc2Cl)c(Cl)c1 (stereo not given) | -4&-5 | 48&13 | 2 | -8&7 | -12&-6 | -17&-13 |
| C=C(C=O)CC1CC(O)[C@]2(C)OC3C[C@@H]4OC5C[C@]6(C)O[C@]7(C)CCC8OC9C[C@]%10(C)OC(/C(C)=C\CO)C(O)CC%10OC9CC(C)C8OC7CC6O[C@]5(C)C/C=C\C4OC3CC2O1 (stereo not given in full) | · | -4 | 5 | 9 | -3 | -9 |
| CCc1ccc(OCC(=O)N2CCN(CC(=O)Nc3ccccc3Cl)CC2)cc1 | -2 | 4 | 4 | 19 | -2 | -18 |
| CCOC(=O)[C@]12Cc3cc(OC)ccc3[C@H]1N(C(C)C)C(=O)c1ccccc12 | -9 | · | · | · | · | -26 |
| C=C(CO)CC1CC(O)[C@]2(C)OC3CC4OC5C[C@]6(C)O[C@]7(C)CCC8OC9C[C@]%10(C)OC%11C(C)=CC(=O)OC%11CC%10OC9C[C@@H](C)C8OC7CC6O[C@]5(C)C/C=C\C4OC3CC2O1 (stereo not given in full) | -3 | 8 | -1 | 0 | -11 | -13 |
| CC(C)CN1Cc2cc(N3CCCCC3)ccc2-n2nncc2C1 | -6 | 2 | · | · | -1 | 3 |
| COc1ccc(-n2c(O)c(C(C)=Nc3ccc4c(c3)CCC4)c(=O)[nH]c2=O)cc1 | -13 | -5 | 3 | -8 | -6 | 13 |
| COC(=O)C1=C(c2ccc(Cl)c(C(F)(F)F)c2)C[C@@H]2CC[C@H]1N2C(=O)NC1CC1 | -6 | 0 | 0 | -15 | 2 | -8 |

2 entries picked at random from the list so far:
| SMILES | CaV13 ICDI inh | Shn3 inh set2 | NR2E3 ag-1 | PDI turbidity | Cardio protect | NR2E3 ag-2 |
| --- | --- | --- | --- | --- | --- | --- |
| COc1ccc(-n2c(O)c(C(C)=Nc3ccc4c(c3)CCC4)c(=O)[nH]c2=O)cc1 | -13 | -5 | 3 | -8 | -6 | 13 |
| CCc1ccc(OCC(=O)N2CCN(CC(=O)Nc3ccccc3Cl)CC2)cc1 | -2 | 4 | 4 | 19 | -2 | -18 |

(continued)
| SMILES | CaV13 ICDI inh | Shn3 inh set2 | NR2E3 ag-1 | PDI turbidity | Cardio protect | NR2E3 ag-2 |
| --- | --- | --- | --- | --- | --- | --- |
| CCCCCn1c(=O)c(C(=O)NCc2ccccn2)c(O)c2ccccc21 | 0 | 34 | 2 | -14 | 54* | 0 |
| COC[C@H]1OC(=O)c2coc3c2[C@@]1(C)C1=C(C3=O)[C@@H]2CCC(=O)[C@@]2(C)C[C@H]1OC(C)=O | -4 | 5 | · | 8 | -3 | 9 |
| CC[C@@H](CO)NC(=O)[C@@H]1C=C2c3cccc4[nH]cc(c34)C[C@H]2N(C)C1 | -7 | -30 | · | 18 | 10 | -4 |
| CC(=O)Cc1ccc(OC(C)C)cc1 | -5 | 11 | 1 | -2 | 10 | -24 |
| c1cncc(CNC2=NCCC2)c1 | -4 | -4 | 2 | 5 | 3 | -11 |

Molecules from the list above that contain an aryl methoxy group:
| SMILES | CaV13 ICDI inh | Shn3 inh set2 | NR2E3 ag-1 | PDI turbidity | Cardio protect | NR2E3 ag-2 |
| --- | --- | --- | --- | --- | --- | --- |
| CCOC(=O)[C@]12Cc3cc(OC)ccc3[C@H]1N(C(C)C)C(=O)c1ccccc12 | -9 | · | · | · | · | -26 |
| COc1ccc(-n2c(O)c(C(C)=Nc3ccc4c(c3)CCC4)c(=O)[nH]c2=O)cc1 | -13 | -5 | 3 | -8 | -6 | 13 |

Just Cardio protect, CaV13 ICDI inh and Shn3 inh set2, for some of the entries so far:
| Compound | Cardio protect | CaV13 ICDI inh | Shn3 inh set2 |
| --- | --- | --- | --- |
| CCc1ccc(OCC(=O)N2CCN(CC(=O)Nc3ccccc3Cl)CC2)cc1 | -2 | -2 | 4 |
| CCOC(=O)[C@]12Cc3cc(OC)ccc3[C@H]1N(C(C)C)C(=O)c1ccccc12 | · | -9 | · |

Screens as filed in PubChem.

An excerpt; rates above refer to the full screens.
